CBX7 inh – blocks human CBX7 binding to H3K27me3 peptide. normalised signal (fraction of DMSO) (test concentration not listed). O95931. AID 1224903. AlphaScreen His6-CBX7 / biotin-H3K27me3 peptide binding; stronger effect = lower value. 1.1% of 66,000 active; in the data active = normalised signal below about 0.5;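 note: 100 nL library stock added to about 20 µL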
Target sequence (O95931 whole entry, looked up): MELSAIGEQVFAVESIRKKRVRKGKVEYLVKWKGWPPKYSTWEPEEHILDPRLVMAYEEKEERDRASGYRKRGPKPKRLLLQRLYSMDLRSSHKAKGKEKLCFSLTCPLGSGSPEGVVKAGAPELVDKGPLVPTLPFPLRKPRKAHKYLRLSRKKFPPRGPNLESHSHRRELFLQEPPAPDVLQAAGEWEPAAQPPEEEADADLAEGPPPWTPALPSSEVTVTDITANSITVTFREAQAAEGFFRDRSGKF
CBX7 inh z-score – also measured in CBX7 inh; calls as there; z-score; measured here: z-score of CBX7 signal; some inactives read as strong as hits; reference of the scale not given here;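 same signal on another scale; lower means less binding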
Numbers without * were called inactive.

SMILES	CBX7 inh	CBX7 inh z-score
CCCCOc1ccc(C(=O)Nc2nc(-c3ccc(C)cc3)cs2)cc1	1	0.49
COc1ccc(C2(C(=O)Nc3ccc(C)c(C)c3)CCOCC2)cc1OC	1.4	3.3
O=c1oc2ccc(Br)cc2cc1-c1nnc(Nc2ccccc2)s1	0.93	-1.3
O=C(C1CCN(S(=O)(=O)c2cnc[nH]2)CC1)N1CCn2c1nc1ccccc12	0.88	-2
Cc1ccc(CNC(=O)CC(C)CC2=NS(=O)(=O)c3ccccc3N2)cc1 (configuration not stated)	1.1	1.2
CN(C)CC(=O)C12CC3CC(CC(C3)C1)C2	0.91	-0.96
Cc1cccc(-c2nc(Nc3ccc(OCc4ccccc4)cc3)c3ccccc3n2)c1	1.3	6.2
CCC(=O)N1CCc2cc(S(=O)(=O)CCC(=O)NCCc3ccccc3)ccc21	1	0.072
O=C(COc1ccccc1)Nc1cc(-c2nc3ncccc3o2)ccc1Cl	1	1.3
O=C(NCc1ccc(Cl)cc1)c1ccc2nc(N3CCOCC3)sc2c1	1	1.5
CC1(C(=O)NC2CCCCC2)CCC(=O)N1Cc1ccc(F)cc1 (configuration not stated)	1.1	0.92
O=C(Nc1ccc(F)cc1)C1CCC(CNS(=O)(=O)c2cccc3cccnc23)CC1 (configuration not stated)	1	0.16
COc1ccc(C(=O)c2oc3ccccc3c2NC(=O)COc2cc(C)cc(C)c2)cc1	1.3	0.98
Cn1cc(CC(=O)NCCCN2CCCCCC2)c2ccccc21	1	1.2
CC(C)(C)OC(=O)N1CCC(c2cc(=O)n3[nH]cc(C(=O)Nc4ccc(F)cc4)c3n2)CC1	0.96	-0.91
O=C1CCCC2=C1C(c1cccs1)CC(=O)N2c1cccc(C(F)(F)F)c1 (configuration not stated)	1.1	2.4
O=C(NC1(C(=O)Nc2ccccc2)CCCCC1)c1ccc(-n2cnnn2)cc1	0.98	-0.11
COc1ccccc1N1CCN(c2nc(-c3ccc(F)cc3)cc(C(F)(F)F)n2)CC1	1.1	0.74
Cc1ccc(C(=O)Nc2c(-c3ccc(F)cc3)nc3ccccn23)cc1	1	0.17
Cc1c(C(=O)N2CCN(Cc3ccccc3)CC2)sc2ncn(CC(=O)N3CCCCC3C)c(=O)c12 (configuration not stated)	1.1	2.5
CC1CCN(C(=O)c2cc(-c3ccco3)on2)CC1	0.98	-0.54
Cc1ccc(NC(=O)COc2ccc3oc4c(c3c2)CCCC4)cc1	1.1	0.6
CC(C)(C)NC(=O)CN1C(=O)CSc2ccc(S(=O)(=O)N3CCCCC3)cc21	0.99	-0.31
CCC(=O)N1CCc2cc(S(=O)(=O)Nc3ccc(OC)c(Cl)c3)ccc21	1	0.38
COc1ccc(C(=O)Nc2ccc3oc(-c4ccccc4)nc3c2)cc1Br	1	1.8
The list goes on:
SMILES	CBX7 inh	CBX7 inh z-score
COCCCNC(=O)CCc1c(C)nc2cc(-c3ccccc3OC)nn2c1C	1	1.4
COc1ccc(-c2nnc(NC(=O)c3ccc(S(=O)(=O)N4CCOCC4)cc3)o2)cc1	0.52	-11
O=C(CSc1nnc(Cc2cc(=O)[nH]c(=O)[nH]2)n1-c1ccccc1)Nc1ccc(F)cc1	1.1	2.5
Cc1cc(C)n(-c2cc(N3CCOCC3)ncn2)n1	0.94	-0.71
COc1ccc(-c2noc(COc3cccc(C)c3C)n2)cc1	1.4	4
COCCn1cc(C(=O)N2CCN(c3cccc(Cl)c3)CC2)c2c3ccccc3n(C)c2c1=O	0.93	-2.1
CCOc1ccc(C(=O)Nc2cccc(C(F)(F)F)c2)cc1Br	1.2	1.7
COc1ccc2c(c1)CCc1c(C(=O)N3CCN(Cc4ccccc4)CC3)noc1-2	0.83	-1.4
Clc1ccc(-c2nnc(-c3cccs3)c3conc23)cc1	0.97	-0.33
COc1ccccc1OCCCCCCc1c(C)n[nH]c1C	0.5*	-18*
O=C(Cn1cc(S(=O)(=O)c2ccc(F)cc2)c(=O)c2cc(F)ccc21)Nc1ccc(F)cc1	0.88	-1.8
Cc1ccc(CCNC(=O)C(Cc2ccccc2)NS(=O)(=O)c2ccc3c(c2)CCC(=O)N3)cc1 (configuration not stated)	0.97	-0.58
O=C(c1cc(-c2ccncc2)nc2ccccc12)N1CCN(c2ccccn2)CC1	0.85	-1.7
CCCOc1ccc(C2C(=O)N(C3CCCCC3)CC(=O)N2C2CCCCC2)cc1OC (configuration not stated)	0.93	-0.071
CCCOc1ccc(C2CC(=O)NC3=C2C(=O)CC(C)(C)C3)cc1OC (configuration not stated)	0.93	-0.83
O=C(Cn1nc(Cc2ccncc2)c2ccccc2c1=O)Nc1nccs1	1.2	2.3
Cc1ccc(-c2nc(-c3ccncc3)no2)cc1C	1	0.06
O=C(c1cc2cc(Br)ccc2oc1=O)N1CCCCC1	0.95	-0.84
Cc1nc2c(-c3ccc(F)cc3)c(C)nn2c(C)c1CCC(=O)Nc1cc(F)ccc1F	1.1	0.61
COc1ccc(Nc2ncnc3c2c(-c2ccccc2)cn3-c2cccc(Cl)c2)cc1OC	0.73	-7.7
NC(=O)C1(N2CCCCC2)CCN(c2ccc3nncn3n2)CC1	1	0.19
Cc1ccc(OCCSc2nc3ccccc3n2CCOc2ccc(C)cc2)cc1	1.2	5
COc1ccc(C(=O)Nc2c3c(nn2-c2cccc(C)c2)CSC3)cc1	0.93	-1.8
COc1ccc(Nc2ccnc3ccccc23)cc1	1.1	2.7
FC(F)(F)c1cc(-c2cccs2)nc(N2CCN(c3ccccc3)CC2)n1	1.2	1.6
Going on with the list:
SMILES	CBX7 inh	CBX7 inh z-score
COc1ccc(C(=O)Nc2c(-c3ccccc3)nc3ccc(C)cn23)cc1	0.99	-0.14
CCN(CC)CCCNC(=O)c1ccc2nc(N3CCC(C)CC3)sc2c1	0.99	-0.28
COc1cc(C2NC(=O)c3c(sc4c3CCCC4)N2)cc(OC)c1OC (configuration not stated)	0.87	-2.2
CCC(=O)N1CCc2cc(S(=O)(=O)NCCC(=O)NC3CCCc4ccccc43)ccc21 (configuration not stated)	1	0.32
Cc1ccc(CCNC(=O)c2c[nH]c3ccc(S(=O)(=O)Nc4ccccc4F)cc3c2=O)cc1	1.1	2.2
COc1ccc(OC)c2[nH]c(=O)c(CCNC(=O)c3cc(Br)ccc3Cl)cc12	1	0.31
Cc1csc2ncc(C(=O)Nc3cccc(Br)c3)c(=O)n12	0.99	-0.24
CCC1Oc2ccc(C)cc2N(CC(=O)NCC(C)CN(CC)CC)C1=O (configuration not stated)	1	0.37
CC1CCCCN1C(=O)CSc1nnc(-c2ccccc2)o1 (configuration not stated)	0.94	-0.14
Nc1nonc1C(=O)NCCNS(=O)(=O)c1ccc2ccccc2c1	1	0.13
C=CCn1c(CCNC(=O)c2ccc(Cl)cc2)nc2ccccc21	1.1	2.6
Cc1ccc(NC2c3ccccc3C(=O)N2c2ccc(Cl)cn2)cc1F (configuration not stated)	1.2	2.5
Cc1[nH]n2c(=O)cc(Cc3ccccc3)nc2c1-c1ccccc1	1	0.31
Cc1ccc(NC2c3ncccc3C(=O)N2C2CCCCC2)cc1Cl (configuration not stated)	0.83	-2.1
CCN(CC)CCCNC(=O)c1ccc2c(c1)N(Cc1ccccc1C)C(=O)c1ccccc1S2	1.1	2.2
CCCN1CCN(CCCNC(=O)Cn2nc(Cc3ccncc3)c3ccccc3c2=O)CC1	1.2	1.9
COc1cc(-n2cnc3cc(C(=O)NCCN4CCOCC4)ccc32)cc(OC)c1OC	0.91	-1.1
CCOC(=O)c1ccc(-n2nnnc2C2(Nc3ccc(NC(C)=O)cc3)CCCCC2)cc1	0.92	-2.2
CCn1c(C(=O)N2CCC(C(=O)NCc3ccc(OC)cc3)CC2)cc2sccc21	0.85	-0.68
Cc1ccc(C(C)C)cc1S(=O)(=O)NCCc1c(C)[nH]c2ccc(F)cc12	0.94	-1.3
O=C(CN1CCN(Cc2ccccc2)C1=O)NCc1ccc(Cl)cc1	0.9	-1.3
CC1CCN(c2nc3nonc3nc2Nc2ccc(F)cc2)CC1	1	-0.12
CCOc1ccc(NC(=O)CCNC(=O)Cn2ccc3ccccc3c2=O)cc1	1.1	1.2
COc1cc(OC)c(NC(=O)c2csc3c2CCCCC3)cc1Cl	1.1	2.5
Cc1ccc(CNC(=O)c2cc(-c3ccccc3)nc3ccccc23)cc1	0.98	-0.034

A second format for 4 compounds above.
Screens in order: CBX7 inh, CBX7 inh z-score
> O=C(CN1CCN(Cc2ccccc2)C1=O)NCc1ccc(Cl)cc1
    0.9, -1.3
> CC1CCN(c2nc3nonc3nc2Nc2ccc(F)cc2)CC1
    1, -0.12
> CCOc1ccc(NC(=O)CCNC(=O)Cn2ccc3ccccc3c2=O)cc1
    1.1, 1.2
> COc1cc(OC)c(NC(=O)c2csc3c2CCCCC3)cc1Cl
    1.1, 2.5

Next part
SMILES	CBX7 inh	CBX7 inh z-score
COc1ccc(Nc2nc3cc(C)ccc3nc2NS(=O)(=O)c2ccc(Cl)cc2)cc1	0.85	-0.18
COc1ccc(C2CC(=O)N(CC(=O)Nc3cc(C)ccc3C)c3ccccc3S2)cc1OC (configuration not stated)	0.95	-0.74
O=C(O)CSc1nnc(COc2cccc3cccnc23)n1-c1ccccc1	1.1	1.9
O=C(Cc1ccc(NC2=NC3CS(=O)(=O)CC3S2)cc1)Nc1ccc(F)c(Cl)c1 (configuration not stated)	1.1	1.4
CCOCCCNC(=O)Cn1ncc2ccsc2c1=O	1	2.2
O=C(NC1CCCC1)C(c1ccc(Cl)cc1)N1CCCC1 (configuration not stated)	1	-0.00015
C#CC(C)(C)NS(=O)(=O)c1cc(-c2nnc(Nc3ccccc3)c3ccccc23)ccc1C	1	0.0042
CCn1c(C(=O)N2CCC(C(=O)NCCCOC)CC2)cc2sccc21	1	0.032
Cc1ccc(CN2CCN(CC(=O)N3CCC(C(N)=O)CC3)C2=O)cc1	0.9	-1.7
CC1CCCN(C(=O)c2cnc(N3CCN(c4ncccn4)CC3)c3ccccc23)C1 (configuration not stated)	1.1	0.49
CC(C)c1ccc(NC(=O)Nc2cc3sccc3n2C)cc1	1	0.85
CC(=O)Nc1nonc1-c1nc2ccccc2n1Cc1ccccc1C	0.96	-0.74
C=CCn1c(SCC(=O)Nc2c(C)cccc2C)nnc1-c1cccnc1	1	0.65
CCCn1c(C(Cc2ccccc2)NC(C)=O)nc2ccccc21 (configuration not stated)	1.1	1.2
CCOC(=O)c1cc(-c2ccccc2)n(CCC(=O)Nc2cccc(Cl)c2C)c1C	0.95	-1.6
CC(c1ccccc1)C1CC(=O)N(Cc2ccccc2)C1=O (configuration not stated)	0.91	-1
COc1ccccc1NC(=O)C1CCN(S(=O)(=O)c2cnc[nH]2)CC1	0.92	-0.94
CS(=O)(=O)N1CCC(C(=O)NCc2ccccc2Cl)CC1	1	0.062
O=C(NC1CCCCC1)c1ccc(CNc2c(N3CCOCC3)c(=O)c2=O)cc1	0.96	-0.083
CC(=O)N1CCc2cc(S(=O)(=O)N3CCN(c4ccc(C)cc4)C(C)C3)ccc21 (configuration not stated)	1.2	0.74
CC(=O)NC(CCS(C)(=O)=O)C(=O)Nc1ncn[nH]1 (configuration not stated)	0.93	-3
COc1ccccc1NC(=O)c1cccc2c1C(=O)N(C1CCCCC1)C2	0.91	-1.6
CC(NC(=O)c1ccc(F)cc1)C(c1cccs1)N1CCOCC1 (configuration not stated)	0.98	-0.37
Cc1cc2ccccc2c(=O)n1CC(=O)Nc1ccccn1	1.1	0.65
COc1cccc(-c2nnc(NC(=O)Nc3cccc(Cl)c3)s2)c1	1	0.38

3 compounds out of the list above, ordered by their value in CBX7 inh z-score, highest first.
Molecule | CBX7 inh z-score
O=C(NC1CCCCC1)c1ccc(CNc2c(N3CCOCC3)c(=O)c2=O)cc1 | -0.083
COc1ccc(Nc2nc3cc(C)ccc3nc2NS(=O)(=O)c2ccc(Cl)cc2)cc1 | -0.18
CC(=O)NC(CCS(C)(=O)=O)C(=O)Nc1ncn[nH]1 (configuration not stated) | -3

Later entries:
SMILES	CBX7 inh	CBX7 inh z-score
COc1ccc(-n2c(Cc3cc(=O)[nH]c(=O)[nH]3)nnc2SCC(=O)Nc2cc(C)ccc2C)cc1	0.83	-2.6
CCOc1ccc2nc(N3CCC(C(=O)NCCOC)CC3)sc2c1	0.97	-0.15
CCCCOc1ccc(C2C(N3C(=O)c4ccccc4C3=O)C(=O)N2c2ccc(Br)cc2)cc1 (configuration not stated)	0.92	-1.8
COc1cc(/C=C/c2nc3ccccc3c(=O)n2-c2ccc(OC)c(Cl)c2)ccc1O	1.1	1.3
Cc1cccc(OCC(=O)Nc2ncc(Cc3cccc(Cl)c3)s2)c1	0.97	-0.18
CCOC(=O)C1CCCN(C(=O)c2c[nH]n3c(=O)c(Cc4ccc(Cl)cc4)c(C)nc23)C1 (configuration not stated)	1	0.23
CCOc1ccc(NC(=O)N2CCC(N(C)CCC(C)C)CC2)cc1	1.1	0.09
O=C(Nc1cccc(-c2nc3ccccc3[nH]2)c1)c1ccccc1Cl	1	0.45
COc1cccc(-c2cc(C(=O)N(C)Cc3ccccc3)no2)c1	1.1	3.1

Entries of single compounds, looked up by structure:
Shown for CCOc1ccc2nc(N3CCC(C(=O)NCCOC)CC3)sc2c1 = CBX7 inh = 0.97; CBX7 inh z-score = -0.15
Shown for CCOc1ccc(NC(=O)N2CCC(N(C)CCC(C)C)CC2)cc1 = CBX7 inh = 1.1; CBX7 inh z-score = 0.09

As a working copy, three of the compounds above.
SMILES	CBX7 inh	CBX7 inh z-score
CCOc1ccc(NC(=O)N2CCC(N(C)CCC(C)C)CC2)cc1	1.1	0.09
O=C(Nc1cccc(-c2nc3ccccc3[nH]2)c1)c1ccccc1Cl	1	0.45
COc1cccc(-c2cc(C(=O)N(C)Cc3ccccc3)no2)c1	1.1	3.1

A portion of the library; the hit share may differ from the screen's.
